# Assay outcomes (PubChem BioAssay)
# CapD inh: CapD enzyme inhibition; purified CapD enzyme, fluorescence intensity read-out; stronger effect = lower value; some hits fall short of the stated cut; z-score (no concentration beside the values); 140,000 tested, 0.23% active; AID 492967;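 active = z-score under -4 in either of two replicates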;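 note: stock transfer was 100 nL into about 40 µL; score is relative to mean and spread of the plate; one replicate is shown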
# AID504770: growth inhibitors of E. coli YBA685 in a screen for V. cholerae RctB (chromosome II replication) inhibitors; E. coli YBA685 rctB-dependent plasmid, OD600 growth, 3 h; stronger effect = lower value; z-score (test concentration not listed); 130,000 tested, 0.27% active; AID 504770;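 active = z-score under -2 on both plates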;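 note: wells of about 30 µL received 100 nL stock; score is relative to mean and SD of the test wells; the first replicate is given; strong numbers were not always called active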
# Active calls of the source: *; . = not tested or not shown. Some of the compounds tested; count on the stated rates, not on these rows.
SMILES,CapD inh,AID504770
O=C(OCCN1CCN(C2=NS(=O)(=O)c3ccccc32)CC1)c1cccc2ccccc12,-0.29,.
CCOC(=O)CSc1nnc2n(-c3ccc(C)cc3)c(=O)c3c(n12)-c1ccccc1CC31CCCCC1,-0.34,.
CCC(=O)Nc1ccc(C(=O)CSc2nc3ccccc3n2CCC#N)cc1,.,-0.65
O=C1NC(=S)S/C1=C\c1ccccc1OCC(=O)N1CCCC1,.,-0.65
COc1cc(OC)nc(C(Sc2ncc(C(=O)O)n2C)c2ccccc2)n1 (stereo not given),-0.58,.
Cc1ccc(C2CC(C(F)(F)F)n3nc(C(=O)N4CCN(C(=O)c5ccccc5)CC4)c(Cl)c3N2)cc1 (stereo not given),0.05,.
CC(NC(=O)c1ccco1)C(=O)OCc1cccc(Cl)c1 (stereo not given),.,-0.35
NNS(=O)(=O)c1ccc(Br)cc1,-1.4,-0.55
O=c1[nH]nc(SCc2csc(-c3ccccc3)n2)n1Cc1ccco1,-1.4,-0.5
O=C(Oc1ccc2cc(-c3ccc(F)cc3)c(=O)oc2c1)c1ccco1,51,-0.25
O=C(Oc1ccccc1)C1CCCN(C(=O)c2ccc(Cl)cc2)C1 (stereo not given),.,-0.95
Cc1c(C#N)c2ccccc2n1CCOc1cccc2ccccc12,0.075,2.4
O=C(Nc1nc2ccccc2[nH]1)c1cccc(Oc2ccccc2)c1,0.19,0.55
COc1ccc(CN2C(=O)c3cccnc3C2=O)cc1S(=O)(=O)N(CC(C)C)CC(C)C,-0.02,0.35
O=C(c1cnn2c3c(cnc12)CCCCC3)N1CCCCC1,72,-0.2
O=C(CN1CCN(Cc2ccc(Cl)cc2)C1=O)NCc1ccccc1Cl,0.52,-0.45
CC12CN3CC(C)(CN(C1)C3c1c[nH]c3ccccc13)C2=O (stereo not given),0.04,.
CC(C)(C(=O)Oc1ccc(Cl)cc1)S(=O)(=O)c1ccc(C(F)(F)F)cn1,0.23,.
CCNc1c(NS(=O)(=O)c2cccs2)c(=O)oc2ccccc12,-0.29,-0.8
COc1ccc(C(=O)C2C(c3cccnc3)C(C#N)(C#N)C3c4ccccc4C=CN23)cc1 (stereo not given),1.4,.
CCOC(=O)c1c(O)c2ccccc2n(C)c1=O,1.7,.
COc1ccc(C2Nc3ccc4ccccc4c3C3=C2C(=O)CCC3)cc1 (stereo not given),5.7,.
COC(=O)c1ccc([C@H]2C(C#N)=C(N)C(C#N)(C#N)C3=CCC(C(C)(C)C)C[C@@H]32)cc1 (stereo not given in full),2.7,2.4
CC1CCCCC1NS(=O)(=O)c1ccc2c(c1)CC(=O)N2C (stereo not given),0.095,-0.3
Cc1ncc(S(=O)(=O)c2cccc(C(F)(F)F)c2)c(-c2ccccn2)n1,0.21,.

# (next part)
SMILES,CapD inh,AID504770
COC(CNC(=O)c1cn(C)c2ccc(S(=O)(=O)N3CCCC3)cc2c1=O)OC,-0.02,-0.95
COC(=O)Nc1ccc(N=Cc2cccs2)cc1,-2.1,-1.1
CCC1C(=O)N=C(SCC(=O)Nc2ccc(Br)cn2)NC1=O (stereo not given),0.57,-0.5
O=C(CC1SC(=O)N(CN2CCOCC2)C1=O)NCc1ccccc1 (stereo not given),-0.61,.
CC(O)c1cc(NC(=O)c2ccccc2)c(=O)oc1/C=C/N(C)C (stereo not given),-2,-0.2
COc1ccccc1C1CC(=O)Nc2c1ccc(C)c2C (stereo not given),0.19,0.05
Cc1cc(Nc2cccc(C(F)(F)F)c2)nc2ccc(NC(=O)CSc3ccncc3)cc12,79,1.1
O=C(O)CSc1ncnc2sccc12,.,-1.2
COC(=O)c1ccc2c(c1)C=CC1(O2)c2ccccc2-c2ccccc2N1C (stereo not given),0.15,.
C/C(=N\OC(=O)NC(C)C)c1sc(-c2ccc(Cl)cc2)nc1C,2.2,.
O=C(O)/C=C/C(=O)Nc1ccc(Cl)cc1C(=O)c1ccccc1,-0.21,-0.55
CSc1ncc(C(=O)Nc2nc(CN3CCCCC3)cs2)n1-c1ccc(F)cc1,.,0.35
Cc1ccccc1CN(C)CC(=O)Nc1ccccc1F,.,1.7
O=C(CSc1n[nH]c(=O)n1Cc1ccccc1)c1ccc(S(=O)(=O)N2CCCC2)cc1,.,0.55
N#C/C(=C\Nc1ccccn1)C(=O)c1ccccc1,-2.2,-0.9
CC(C)(C)c1cc(-c2cc(C(C)(C)C)c(O)c(C(C)(C)C)c2)cc(C(C)(C)C)c1O,0.65,.
COc1ccc(-c2n[nH]c(=S)n2-c2ccccc2)cc1OC,0.93,-0.3
CCC(C)C(=O)N1c2ccccc2C(N(C(=O)C(C)CC)c2ccccc2)CC1C (stereo not given),0.055,.
CCSc1nnc(NC(=O)CSc2nnc(NC(=O)COc3ccc(Cl)cc3)s2)s1,0.075,.
O=C(Nc1ccccc1Cl)NC1(C(=O)N2CCCCC2)CCCCC1,.,-1.7
C=CCNc1cc(C)nc2ccc(C)cc12,0.36,-0.45
CCOC(=O)c1[nH]c2ccccc2c1NC(=O)c1ccc(S(=O)(=O)N2CCCC2)cc1,2.3,-0.15
CN(C)CCN(Cc1ccccc1)S(=O)(=O)c1cccc2cccnc12,-0.79,-0.25
COc1ccccc1C(=S)N1CCCCC1,-0.8,1.8
COC(=O)C(C)(C)NC(=O)c1cc(OC)nc(OC)n1,-0.3,.

# (more compounds)
SMILES,CapD inh,AID504770
Cn1ccnc1SCC(=O)c1cccc([N+](=O)[O-])c1,-0.43,.
Cc1ccc(-n2c(=O)c3ccc(C(=O)NCc4ccco4)cc3n(Cc3cccc(C)c3)c2=O)cc1,-1.5,-1
CCOC(=O)c1cc2sccc2n1CC(=O)NC(C)C,.,-0.35
CN1C(C(=O)NCc2ccccc2)=CC(c2ccco2)=NS1(=O)=O,1.3,-0.3
COCCNC(=O)c1ccc(Cn2c(SCC(=O)NCC3CCCO3)nc3ccc(Br)cc3c2=O)cc1 (stereo not given),-0.085,.
C=CC[n+]1ccc2ccccc2c1,37,-0.55
Cc1ccc(S(=O)(=O)CC(O)COc2ccc(F)cc2Cl)c(C)c1 (stereo not given),0.34,.
NC(=O)C1(N2CCCCC2)CCN(c2nc(-c3ccccc3F)nc3ccccc23)CC1,0.17,.
CCC(=O)Nc1ccc(C(=O)OCC(=O)C(C)(C)C)cc1,-0.05,-0.7
CCN1C[C@]2(OC(=O)c3ccccc3NC(C)=O)CC[C@H](OC)[C@@]34C2C[C@@H]([C@@H]13)[C@@]1(O)C[C@H](OC)[C@H]2CC4[C@]1(O)[C@H]2OC (stereo not given in full),7.5,0.5
COC(=O)c1c(O)cc(=O)n2c1CCCCC2,.,0.4
O=C(c1cc2ccccc2oc1=O)N(Cc1ccc(Cl)cc1)C1CCS(=O)(=O)C1 (stereo not given),-0.91,-0.75
COc1ccc(CCCC(=O)NN=Cc2ccco2)cc1,.,-0.8
Clc1cccc(N2CCN(c3nnc4n3CCCCC4)CC2)c1,0.31,-0.15
CN=C(Nc1cccc(C(F)(F)F)c1)c1ccncc1,-0.96,1.2
Cc1[nH]c(=O)[nH]c(=O)c1NC(=O)c1ccccc1,.,-0.65
O=C(O)CSc1ncnc2ccccc12,-0.49,-1.1
O=C(O)c1ccccc1SCC(=O)N1CCN(Cc2ccccc2)CC1,.,-0.5
O=C(N1OCC2COc3ccc4ccccc4c3C21)C12CC3CC(CC(C3)C1)C2 (stereo not given),-0.33,.
N#CC1=CN(Cc2ccccc2)C=C(C=Nc2ccccc2)C1,.,-0.3
CC1=C(C(=O)Nc2ccccc2)C(c2ccncc2)C(C#N)=C(SCC(=O)Nc2ccccc2)N1 (stereo not given),9.3,.
COC(=O)CN(c1cccc2ccccc12)S(C)(=O)=O,-0.36,-0.35
CSc1ncc(C(=O)Nc2ccccc2N2CCN(C)CC2)n1-c1ccccc1,.,-1
O=C(O)CSCC(=O)Nc1cccc(F)c1C(=O)O,-0.2,-0.7
CC12c3ccccc3C(c3ccccc31)C1C(=O)N(c3ccc(Cl)cc3)C(=O)C12 (stereo not given),-0.09,.

# 2 compounds picked at random from those above, as already listed:
SMILES,CapD inh,AID504770
CN=C(Nc1cccc(C(F)(F)F)c1)c1ccncc1,-0.96,1.2
Cn1ccnc1SCC(=O)c1cccc([N+](=O)[O-])c1,-0.43,.

# Next compounds follow.
SMILES,CapD inh,AID504770
O=C(Nc1ccccc1O)c1cc2cc(Br)ccc2oc1=O,0.35,1.8
O=C(O)c1ccccc1C(=O)Nc1cccc(Cl)c1,-0.43,-0.4
Cc1[nH]c(=O)[nH]c(=O)c1S(=O)(=O)N1CCN(c2ccccc2)CC1,13,0
COc1ccc(C(=O)NCCc2cc3c(OC)ccc(OC)c3[nH]c2=O)cc1,.,0.2
CC(C)N(c1ccccc1)c1ccc(NC(=O)C2CCC2)cc1,.,-0.3
O=S(=O)(NCCc1ccccc1)c1ccc(S(=O)(=O)N2CCCCC2)cc1,.,0.1
CCOC(=O)C1CCN(c2ncnc3c2c(-c2ccccc2)cn3-c2ccccc2)CC1,0,.
Nc1cc(=O)[nH]c(=S)n1-c1ccc(Cl)cc1,-0.45,-0.5
N#CC1=C(SCC(=O)Nc2ccc(Br)cc2)NC(=O)CC1c1cccc(Cl)c1 (stereo not given),-0.04,.
COc1ccc(-c2c(C)sc(=NCCO)n2-c2ccccc2)cc1,-1.3,-0.4
COc1cc(C2Nc3ccc4ccccc4c3C3=C2C(=O)CC(C)(C)C3)cc(OC)c1O (stereo not given),36,.
Cc1cc(NC(=O)c2ccc(Br)o2)nc2c1c(=O)oc1ccccc12,.,1.1
O=C(O)c1ccc(S(=O)(=O)c2cc(Cl)ccc2Cl)c([N+](=O)[O-])c1,1.1,.
CC1=Nn2c(nc3sc(-c4ccccc4)cc3c2=O)SC1,2.4,0.6
CC(Oc1ccc2c3c(c(=O)oc2c1)CCC3)C(=O)OC1CCCCC1 (stereo not given),6.4,-0.25
C=C1c2cc(C)cc(C)c2NC(=O)N1CC,4.8,0.25
O=C(NC(OCc1ccccc1)C(=O)c1ccccc1)c1ccccc1 (stereo not given),0.31,-0.5
Cc1nc(SCC(=O)Nc2cc(C)on2)n[nH]1,-0.35,.
O=C(Oc1ccccc1)c1ccc(-n2cnnn2)cc1,.,0.5
Cc1ccc(CCOC(=O)N2CCCN(Cc3ccc(Cl)c(Cl)c3)CC2)cc1,0.57,.
COc1ccccc1OCC(=O)NCCCn1ccnc1,.,-0.75
COCCn1c(C)cc(C(=O)COC(=O)c2cc3c(s2)CCCCC3)c1C,.,-0.1
CC1CCC(C(C)C)C(OC(=O)NC(=O)C(F)(F)F)C1 (stereo not given),-0.97,-1
O=C(O)c1ccc2nsnc2c1,-0.62,-0.3
Cc1cc(C)cc(NC(=O)CCCn2c(=O)c3cccn3c3cccnc32)c1,0.82,-0.55

# Complete entries as entered above:
# CCOC(=O)CSc1nnc2n(-c3ccc(C)cc3)c(=O)c3c(n12)-c1ccccc1CC31CCCCC1 is entered as CapD inh: -0.34; AID504770: .
# CC(Oc1ccc2c3c(c(=O)oc2c1)CCC3)C(=O)OC1CCCCC1 (stereo not given) is entered as CapD inh: 6.4; AID504770: -0.25
# O=C(c1cnn2c3c(cnc12)CCCCC3)N1CCCCC1 is entered as CapD inh: 72; AID504770: -0.2

# Following part.
SMILES,CapD inh,AID504770
COc1cc(OC)nc(-c2nnc(SCc3ccccc3)n2C)n1,-0.2,.
CCOc1cc(CCC(=O)O)on1,.,-0.65
O=C(NCc1ccncc1)C1c2ccccc2Oc2ccccc21,-0.59,-0.45
NNC(=O)CNC(=O)c1c(F)cccc1F,0.41,.
CSC1=NCCCN1S(=O)(=O)c1ccc(Cl)cc1,-0.84,-1.1
CSc1ccccc1C(=O)NC1CC(C)(C)NC(C)(C)C1,-0.04,0.15
CN(C)C(=O)c1cnc(-c2ccccc2)nc1-c1ccccc1,-0.1,-1.2
Cc1c(C(=O)N2CCOCC2)sc2nc(SCC#N)n(CCc3ccccc3)c(=O)c12,-0.36,.
CCCCN1C(=O)/C(=C2\SC(=S)N(NC(=O)c3ccc(C)cc3)C2=O)c2ccccc21,-0.33,.
CCCNC(=O)c1cc(S(=O)(=O)N2CCCCC2)c[nH]1,-0.36,-1.6
COc1ccc(/C(O)=C(/C#N)c2nc3ccccc3c(=O)[nH]2)cc1,-0.07,-0.75
COc1ccc(-n2c(C)nc3cc(C(=O)O)ccc32)cc1,0.14,-1.1
CCCCNC(=O)Cn1c(-c2ccc(C)cc2)noc1=O,.,-0.9
O=c1cc(-c2cc3ccccc3o2)oc2ccccc12,57,0.9
OC1(c2ccccc2)CN(c2ccc(Cl)cc2)C2=[N+]1CCCS2 (stereo not given),0.29,.
Cc1ccc(S(=O)(=O)c2nc(S(=O)(=O)C3CCCCC3)sc2N(C)C)cc1,.,-0.7
COc1ccc2c(c1)C(C(C#N)C#N)c1c(nc(N)c(C#N)c1N)O2 (stereo not given),0.48,-3*
O=C1c2ccccc2C(=O)c2c1c(-c1ccccc1)n(-c1ccc(Br)cc1)c2-c1ccc(Cl)cc1,-0.39,.
COCC(C)n1c(C)cc(C(=O)COC(=O)c2ccc(N3CCCC3=O)cc2)c1C (stereo not given),.,-0.95
CCCn1c(=O)/c(=C2/C=Cc3ccccc3N2CC)s/c1=C1/SC(=S)N(c2ccc(C)cc2)C1=O,47,.

# By substructure, the compounds so far containing a furan ring, fused or not.
SMILES,CapD inh,AID504770
CC(NC(=O)c1ccco1)C(=O)OCc1cccc(Cl)c1 (stereo not given),.,-0.35
O=c1[nH]nc(SCc2csc(-c3ccccc3)n2)n1Cc1ccco1,-1.4,-0.5
O=C(Oc1ccc2cc(-c3ccc(F)cc3)c(=O)oc2c1)c1ccco1,51,-0.25
Cc1ccc(-n2c(=O)c3ccc(C(=O)NCc4ccco4)cc3n(Cc3cccc(C)c3)c2=O)cc1,-1.5,-1
CN1C(C(=O)NCc2ccccc2)=CC(c2ccco2)=NS1(=O)=O,1.3,-0.3
COc1ccc(CCCC(=O)NN=Cc2ccco2)cc1,.,-0.8
Cc1cc(NC(=O)c2ccc(Br)o2)nc2c1c(=O)oc1ccccc12,.,1.1
O=c1cc(-c2cc3ccccc3o2)oc2ccccc12,57,0.9
